Assay outcomes: PubChem, National Center for Advancing Translational Sciences (NCATS)
Sfp inh – inhibitors of Bacillus subtilis Sfp phosphopantetheinyl transferase; Biochemical Sfp PPTase activity, qHTS; Q9F4F7; Potency, µM, without a hit: max response, negative = inhibition, usual class: inhibitors; 310,000 compounds, 3.5% hits; active = well fitted inhibition curve with a large enough effect; inconclusive = small, poorly fitted or top-dose-only effect, or another doubt; inactive = no such curve, though single readings can be large or run the other way;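 note: the enzyme is Sfp with the accession as filed and its product quenches rhodamine fluorescence; potency is the fitted concentration of half-maximal effect; 0% = enzyme reaction without inhibitor and -100% = no enzyme wells; top concentration of the series not given in the record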
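Fluorescence-quenching assay: 15 nM Sfp-PPTase preincubated 15 min at room temperature with compound, then 5 uM rhodamine-CoA and 12.5 uM BHQ-2-labelled YbbR peptide added. Fluorescence (ex 525/em 598 nm) read at start and after 30 min; difference gives rate.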
TRPML1 blocker – blocks the human TRPML1 channel. Q9GZU1. TRPML1-inducible cells, Ca2+ dye fluorescence, FDSS; stronger effect = lower value; inhibition of EC80 agonist-evoked calcium signal. activity change, negative = inhibition, % (no concentration beside the values). 390,000 compounds, 0.02% hits. AID 624415; in the data active means activity change below about -50%; inconclusive means about -30% to -50%; inactive means above about -30%;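 note: stimulus is agonist 54-4 at its EC80 concentration; % is set by controls: 0 for no effect and ±100 for the full control effect; compound concentration not given in the record; the text of the record puts the active cut at -80%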
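TRPML1-DL cells, Tet-induced overnight (~16 h, 37 °C) at 1,500 cells/well, were loaded with Ca8 no-wash dye plus quencher for 45-90 min at room temperature. Compounds were pinned during FDSS kinetic reading; agonist 54-4 at EC80 (4 uM final) then added.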
TRPML1 ag – agonists of human TRPML1 channel | Q9GZU1 | TRPML1-expressing cells, Ca2+ dye fluorescence, FDSS; host cell line not named in the record; reference of the full effect not given here | activation, % (test concentration not listed) | 410,000 compounds, 0.12% hits | AID 624414; in the data active = activation above about 50%; inconclusive = about 30% to 50%; inactive = below about 30%; note: 0% is about no effect; the text of the record puts the active cut at 80%
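Calcium fluorescence on an FDSS kinetic reader gave the read-out. Tet-induced TRPML1-DL cells were plated overnight, dye-loaded (Ca8 with quencher, 45-90 min, room temperature, dark), then read 110 s after compound addition, and again 110 s after 4uM final 54-4 (EC80).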
ClpP mod – qHTS Assay for Activators of ClpP. ATP-dependent Clp protease proteolytic subunit (Bacillus subtilis (strain 168)), P80244. purified B. subtilis ClpP, FRET peptide cleavage, 20 min. Potency, µM (top dose mostly 57.5 µM), for the others: at the highest dose activity change, negative = active. 340,000 compounds, 1.9% hits; active = well fitted falling curve with a large enough effect; inconclusive = small, poorly fitted or top-dose-only effect; inactive = no such curve, though single readings can be large or run the other way; note: potency is the fitted concentration of half-maximal effect; the source files actives as falling curves though it sought activators and does not explain the sign; nearly all actives have a fitted effect of over 65% in size; many hits overshoot -100%
Target sequence (P80244 whole entry, looked up): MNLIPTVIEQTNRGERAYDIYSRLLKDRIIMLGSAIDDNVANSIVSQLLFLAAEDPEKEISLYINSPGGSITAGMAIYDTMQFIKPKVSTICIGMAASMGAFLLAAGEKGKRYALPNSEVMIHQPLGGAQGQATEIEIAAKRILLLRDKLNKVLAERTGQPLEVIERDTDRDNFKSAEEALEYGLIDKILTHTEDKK
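Buffer: 100 mM Tris/HCl pH8, 100 mM KCl, 0.05% low protease BSA, 2.5% glycerol, 0.01% Tween-20. ClpP 10 microg/mL final; 20 min RT; delta FRET normalized to ADEP and DMSO controls.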
Menin-MLL FL inh – menin-MLL binding inhibition, fluorescein peptide; Fluorescence polarization, fluorescein-MLL peptide displacement from menin; 290,000 tested, under 10 active; AID 1766; FP activity change, % at 61.4 µM; inconclusive = falling polarisation curve, or a change in total fluorescence; inactive = total fluorescence flat and polarisation flat or rising; no compound was filed as active; the % refers to the polarisation; negative = inhibition;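 note: % of control where 0% means no effect; inhibitors lower the polarisation; unlabelled MLL peptide was the positive control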
PINK1 modulator – modulators of PINK1 expression | PINK1 immunofluorescence, high-content cytometry, 24 h | Potency, µM (doses to about 76.6 µM), for the others: at the highest dose activation (PINK1 increase), most hits filed as activators | 410,000 compounds, 0.2% hits | AID 624263; active = well fitted activation curve with a large enough effect; inconclusive = small, poorly fitted or top-dose-only effect; inactive = flat fitted curve, though single readings scatter; cell line not stated here;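 note: potency is the fitted concentration of half-maximal effect; % of control where 0% means no effect; nearly all actives have a fitted effect of over 65% in size; a mitochondrial uncoupler was the plate control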
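Readout is PINK1 immunofluorescence, quantified alongside mitochondrial, cell and nuclear markers by laser-scanning microplate cytometry. Cells from a stable line were exposed to compound titrations (5 concentrations) for 24 hours, with CCCP controls.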
TRPV1 potentiator – enhances activation of the human vanilloid receptor TRPV1 | TRPV1-expressing cells, Fluo-8 calcium influx, capsaicin EC20 potentiation; host cell line not named in the record; control for the full effect not named in the record | potentiation, % at 8.33 µM | 320,000 compounds, 0.02% hits; active means potentiation above 80%; inconclusive means 30% to 80%; inactive means below 30%; note: 0% is about no effect
Target sequence (Q8NER1 whole entry, looked up): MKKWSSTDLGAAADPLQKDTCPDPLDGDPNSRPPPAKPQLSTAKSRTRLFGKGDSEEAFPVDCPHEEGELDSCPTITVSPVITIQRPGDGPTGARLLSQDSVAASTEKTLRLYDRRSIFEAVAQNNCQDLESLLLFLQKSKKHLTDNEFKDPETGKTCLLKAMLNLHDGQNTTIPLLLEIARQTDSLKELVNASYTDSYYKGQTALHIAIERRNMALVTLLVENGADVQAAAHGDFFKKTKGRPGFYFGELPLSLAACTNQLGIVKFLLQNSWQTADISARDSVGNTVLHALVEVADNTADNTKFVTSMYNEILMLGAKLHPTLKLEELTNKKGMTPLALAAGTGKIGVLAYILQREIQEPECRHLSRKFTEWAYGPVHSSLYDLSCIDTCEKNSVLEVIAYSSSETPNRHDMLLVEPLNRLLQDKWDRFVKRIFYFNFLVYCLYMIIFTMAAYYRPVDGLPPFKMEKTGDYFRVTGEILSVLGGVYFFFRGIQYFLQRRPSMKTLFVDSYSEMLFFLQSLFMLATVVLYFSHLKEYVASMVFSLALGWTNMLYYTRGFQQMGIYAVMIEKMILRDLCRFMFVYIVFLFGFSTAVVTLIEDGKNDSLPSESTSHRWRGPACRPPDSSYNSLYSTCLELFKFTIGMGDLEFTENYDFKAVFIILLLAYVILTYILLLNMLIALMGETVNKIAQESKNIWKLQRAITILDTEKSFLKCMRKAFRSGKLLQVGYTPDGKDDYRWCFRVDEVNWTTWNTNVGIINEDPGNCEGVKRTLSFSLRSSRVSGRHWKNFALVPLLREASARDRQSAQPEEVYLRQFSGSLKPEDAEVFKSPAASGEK
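TRPV1-expressing cells were cultured overnight at 35.5C and loaded with Fluo-8 calcium dye for 40 to 90 min at room temperature. After a 10 s baseline, compound was added and calcium influx was read kinetically for 3 min (ex 480/em 520 nm).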
* marks the source's active call; other numbers are inactive results; ? = inconclusive; . = not tested or not shown; & = joins results of further samples; [ ] = remark or other dose. An unsorted share of the library; overall some 4.4% were active at least once.

SMILES	Sfp inh	TRPML1 blocker	TRPML1 ag	ClpP mod	Menin-MLL FL inh	PINK1 modulator	TRPV1 potentiator
Cc1nnc(N2CCC(C(=O)N3CCCCC3)CC2)c2nn(-c3ccc(Cl)cc3)c(C)c12	-4%	10&10	1.1&2.3	-10%&-21%	.	-2.1%&0.5%	-18
COc1ccc(CNc2nc3c(-c4cccc(C)c4)nnn3c3ccccc23)cc1	.	8	-0.9	?	.	0.0%	.
Cc1ccc(-n2cccc2/C=N/n2cnnc2)cc1Cl	-9%	-1	-0.3	3.9%	3.9	0.5%	4
CCc1ccc(C(O)c2ncc(-c3ccccc3C(F)(F)F)[nH]2)cc1 (configuration not stated)	.	.	-1.1	-13%	.	3.5%	.
O=C(CNC(=O)c1ccccc1F)NCCOc1cccc(Cl)c1Cl	6%	2	1.0	-3.8%	0.0	-1.3%	-1
Cc1ccc(NC(=O)CSc2nccn2Cc2ccccc2)cc1C	0%	3	0.2	0.8%	11	4.2%	6
Nc1nnc(CCS(=O)(=O)c2ccc(Cl)cc2)s1	0%	76	0.3	0.2%	-1.5	-1.5%[38.3 µM]	2
COc1cc(CN2CCCC(CO)(Cc3ccccc3F)C2)ccc1O (configuration not stated)	5%	26	0.2	-0.6%	-3.0	-0.5%	-15
COc1ccc(-c2[nH]nc3nc(N4CCN(C(=O)c5ccoc5)CC4)cc(C(F)(F)F)c23)cc1	.	-14	-0.5	4.6%	.	0.8%	.
COc1ccc(Cc2nnc(N=Nc3c(O)[nH]c4ccc(Br)cc34)[nH]c2=O)cc1	27%	1	0.0	?	0.5	-2.6%	4
COC(=O)C1CCN(C(=O)COC(=O)C2CCN(S(=O)(=O)c3ccc4c(c3)OCCO4)CC2)CC1	20%	-5	-0.1	-1.4%	.	-0.2%	6
Cc1nn(Cc2noc(C(=O)NCc3ccc(F)cc3)n2)c(C)c1Br	20%	7&4	0.2&-0.9	0.8%&0.9%	-1.9	-0.2%&1.6%	9

The closing six records of the section above come first, to join the parts:
SMILES	Sfp inh	TRPML1 blocker	TRPML1 ag	ClpP mod	Menin-MLL FL inh	PINK1 modulator	TRPV1 potentiator
Nc1nnc(CCS(=O)(=O)c2ccc(Cl)cc2)s1	0%	76	0.3	0.2%	-1.5	-1.5%[38.3 µM]	2
COc1cc(CN2CCCC(CO)(Cc3ccccc3F)C2)ccc1O (configuration not stated)	5%	26	0.2	-0.6%	-3.0	-0.5%	-15
COc1ccc(-c2[nH]nc3nc(N4CCN(C(=O)c5ccoc5)CC4)cc(C(F)(F)F)c23)cc1	.	-14	-0.5	4.6%	.	0.8%	.
COc1ccc(Cc2nnc(N=Nc3c(O)[nH]c4ccc(Br)cc34)[nH]c2=O)cc1	27%	1	0.0	?	0.5	-2.6%	4
COC(=O)C1CCN(C(=O)COC(=O)C2CCN(S(=O)(=O)c3ccc4c(c3)OCCO4)CC2)CC1	20%	-5	-0.1	-1.4%	.	-0.2%	6
Cc1nn(Cc2noc(C(=O)NCc3ccc(F)cc3)n2)c(C)c1Br	20%	7&4	0.2&-0.9	0.8%&0.9%	-1.9	-0.2%&1.6%	9
CC(NC(=O)C(=O)N/N=C\c1ccc([N+](=O)[O-])cc1)c1ccccc1 (configuration not stated)	7%	-16	-0.4	.	-6.3	12%	3
Clc1cccc(C2CCN(Cc3nc(CC4CC4)no3)C2)c1 (configuration not stated)	15%	26	1.5	.	-4.6	2.0%	-10
Cc1ccc(S(=O)(=O)/N=c2\sccn2C)cc1	-9%	-2	-0.4	-0.6%	-1.5	-1.0%	-7
COc1cccc2sc(=NC(=O)c3ccc(S(=O)(=O)N4CCCCC4)cc3)n(C)c12	.	4	-0.3	-2.5%	.	2.6%	.
Cc1cc(C)c(NC(=O)Cc2csc(C)n2)c(Cl)c1	.	-21	1.3	-0.8%	.	-0.5%	.
Cn1nc(C(=O)NNC(=O)CCOc2ccc(C(C)(C)C)cc2)c2ccccc2c1=O	.	1	1.4	.	.	1.2%	28
Cc1nn(-c2ccccc2)c2nc(-c3ccco3)cc(C(=O)O)c12	13µM*	-1	-0.9	-23%	5.2	-1.6%	?
O=C1c2ccccc2C(=O)c2cc(N3CCCCC3)ccc21	.	5	13	-19%	.	5.1%	.
COc1ccc(-c2nc3cnc(N4CCOCC4)nc3n(-c3ccccc3)c2=O)cc1	27%	.	.	.	?	5.9%	.
CN(C)c1ccc(-c2nc3ccccc3n2C)cc1	?	2	0.1	?	-0.4	-5.1%[38.3 µM]	-19
CCCCNC(=O)c1ccc(NS(=O)(=O)c2ccccc2)cc1	17%	1	-1.3	1.2%	-0.1	-2.5%	3
Cc1ccc(NC(=S)NNC(=O)C2CC2c2ccc(C)cc2)cc1 (configuration not stated)	16%	11	1.6	-1.9%	-2.4	-2.5%[38.3 µM]	0
Cc1c(NC(=O)COC(=O)COc2ccc(Nc3ccccc3)cc2)c(=O)n(-c2ccccc2)n1C	-8%	-16	-0.3	.	-2.2	-0.5%	-11
CCc1ccc(C(=O)c2c(N)c(-c3nc(-c4ccc5c(c4)OCO5)cs3)c3ccccn23)cc1	.	17	0.8	-2.6%	.	4.3%	-3
COc1ccc(N2CCN(C(=O)c3ccc(C)c(NC(=O)C4=C(C)OCCS4)c3)CC2)cc1	9%	-27	0.9	-1.5%	.	-0.2%	0
COc1cc2c(cc1OC)CN(C(=S)Nc1ccc(OC(F)F)cc1)CC2	13%	-6	0.4	.	1.6	-0.2%	-21
CCc1ccc(C(=O)N/N=C(\C)c2ccncc2)s1	-13%	-10	-0.5	-0.7%	.	0.6%	-6
COc1ccccc1OCC(=O)Nc1cc(C)ccc1NC(=O)c1ccco1	7%	32	0.9	-2.1%	.	-0.9%	-12
CCc1cccc2c(C(=O)COC(=O)c3ccc(O)cc3)c[nH]c12	1%	-10	1.4	0.2%	11	5.4%	-9
Cc1ccc(NC(=O)CC2Sc3ccc(C(F)(F)F)cc3NC2=O)cc1 (configuration not stated)	.	4	-0.2	0.6%	.	-0.7%	.
COc1ccc(C(O)c2ncc(-c3cccc(OCc4ccccc4)c3)[nH]2)cc1F (configuration not stated)	.	.	-1.1	-2.1%	.	19%	.
COC(=O)c1ccc(C(=O)NC2CCCc3c2cnn3-c2ccccc2F)nc1 (configuration not stated)	24%	22	-1.7	-0.6%	2.6	5.5%	3
CC(C)Oc1ccc(NC(=O)c2ccncc2)cc1	8%	-10	0.5	64%	2.0	6.8%	-19
Cc1ccc2nc(NC(=O)/C=C/c3ccc4c(c3)OCO4)sc2c1	3%	-1	-0.4	-2.2%	-1.4	14%	7
Cc1c(Cl)cnc(NC(=O)COC(=O)CCS(=O)(=O)c2ccccc2)c1Cl	-8%	-3	1.2	?	?	0.3%	5
CCOC(=O)c1noc2ncnc(N(CCC(=O)OC)c3ccccc3)c12	.	11	-0.9	-1.0%	.	0.4%	.
CCCc1c(C(=O)N/N=C(\CC)c2ccccc2)nnn1-c1nonc1N	.	20	0.0	-0.6%	.	1.3%	.
COc1ccccc1CCNC(=O)C1CCN(C(=O)/C=C/c2ccccc2)CC1	-8%	18	0.8	.	-0.2	1.3%	9
C/C(=N\NC(=O)CCc1ccc(S(=O)(=O)N2CCOCC2)cc1)c1ccc(OC(F)F)cc1	15%	-16	0.2	-0.2%	0.7	-0.6%	-5
COc1ccccc1NC(=O)Cn1c2ccc(F)cc2c2nc3n(c(=O)c21)CCS3	-4%	5	-0.4	.	2.7	5.5%	0
COc1ccc(NC(=O)Nc2cccc(OC)c2)cc1	.	-11	-0.4	-2.1%	.	-2.8%[38.3 µM]	.
COCCN(C(=S)Nc1cc(C)ccc1C)C(C)c1cccnc1 (configuration not stated)	1%	27	0.3	-18%	-1.9	1.7%	-5
O=C(c1ccc(OC2CCN(CCO)CC2)cc1)N1CCCC1	7%	-8	-0.2	-2.1%	.	-0.8%	7
O=C(c1cccs1)N1CCOCC1	15%	2	-0.4	-0.3%	0.9	2.2%	5
CCOC(=O)Cn1nc(-c2ccccc2)nc1-c1ccccc1	-4%	22	5.4	-4.3%	1.1	-1.2%	25
Cc1ccsc1C(=O)N(CC(C)C)c1c(N)n(Cc2ccccc2)c(=O)[nH]c1=O	19%	-23	0.0	-3.5%	-6.9	2.3%	3

Reformatted: entries from further up.
Below each SMILES: Sfp inh, TRPML1 blocker, TRPML1 ag, ClpP mod, Menin-MLL FL inh, PINK1 modulator, TRPV1 potentiator
- Cc1ccc(NC(=O)CSc2nccn2Cc2ccccc2)cc1C
  0%, 3, 0.2, 0.8%, 11, 4.2%, 6
- Nc1nnc(CCS(=O)(=O)c2ccc(Cl)cc2)s1
  0%, 76, 0.3, 0.2%, -1.5, -1.5%[38.3 µM], 2
- COc1cc(CN2CCCC(CO)(Cc3ccccc3F)C2)ccc1O (configuration not stated)
  5%, 26, 0.2, -0.6%, -3.0, -0.5%, -15
- COc1ccc(-c2[nH]nc3nc(N4CCN(C(=O)c5ccoc5)CC4)cc(C(F)(F)F)c23)cc1
  ., -14, -0.5, 4.6%, ., 0.8%, .

The results go on.
SMILES	Sfp inh	TRPML1 blocker	TRPML1 ag	ClpP mod	Menin-MLL FL inh	PINK1 modulator	TRPV1 potentiator
COc1ccc(S(=O)(=O)NNC(=O)Nc2ccc(C)cc2C)c(OC)c1	10%	-6	0.7	-0.6%	2.1	0.3%	-3
Cc1ccc(S(=O)(=O)NN2CCCCCC2)cc1	.	18	-0.6	0.4%	.	-0.2%	.
CCOc1ccc(CNC(=O)Cn2nc(C)c3c(C)n(-c4ccc(C)cc4)nc3c2=O)cc1	-14%	6&13	-1.6&2.6	-1.4%&0.3%	1.0	1.5%&3.0%	3
Cc1noc(C)c1C(=O)Nc1sc2c(c1C(N)=O)CCCCC2	45µM*	-14	-0.6	-0.7%	2.9	8.9%[38.3 µM]	-11
O=C(NCc1ccccn1)Nc1ccc(F)cc1	10%	-1	0.2	-0.6%	-1.4	-1.2%	-6
Cc1cc(C)n(C(C)CC(=O)Nc2ccc(C)c(F)c2)n1 (configuration not stated)	.	-6	0.1	-0.8%	.	1.6%	.
